Compound activity: PubChem, Southern Research Specialized Biocontainment Screening Center
Mtb bLac sens = beta-lactam sensitization of Mtb H37Rv; M. tuberculosis H37Rv growth with meropenem, percent inhibition; hits of this screen are not shown here; inhibition, % at 25 µM; 0.27% of 330,000 active; AID 434955;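 active means about 74% or more and at least 40 points above the plate without the antibiotic, then above 30% in a dose series; inconclusive means first-round hits that could not be retested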;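 further: growth measured after seven days incubation then overnight dye step; 0% = bacteria only wells and 100% = bacteria with antibiotic; twin plates without the antibiotic show which effects depend on it; some results filed as inactive read as strong as hits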
* marks the source's active call; other numbers are inactive results; u = inconclusive.

canonical_smiles,Mtb bLac sens
Cc1ccc(NC(=O)COc2ccc3c(c2)OCO3)c(Cl)c1,-2
CCc1ccccc1NC(=O)N1C[C@H]2C[C@@H](C1)c1cccc(=O)n1C2,-9
O=C(O)c1ccc(OS(=O)(=O)c2ccc(Cl)s2)c(Cl)c1,-18
COc1ccc(C(=O)NCCc2ccccn2)cc1S(=O)(=O)Nc1ccc(Br)cc1,-9
C[C@H](CO)N1C[C@H](C)[C@@H](CN(C)S(C)(=O)=O)Oc2c(NC(=O)Nc3ccc4c(c3)OCO4)cccc2C1=O,-7
COc1ccc(S(=O)(=O)N2CCC(C(=O)NC3CCCCC3C)CC2)cc1 (centres undefined),-7
COc1ccc(CC(=O)OCC(=O)N2CCN(S(=O)(=O)c3ccc(C)cc3C)CC2)cc1,9
O=C(/C=C/c1ccc([N+](=O)[O-])cc1)Nc1cccc(S(=O)(=O)NC2=NCCCCC2)c1,4
O=C(COC(=O)c1ccc2c(c1)OCCO2)NC1CCCCC1,2
O=C(Nc1cccc(S(=O)(=O)N2CCOCC2)c1)C1CC(=O)N(c2ccc3c(c2)OCCO3)C1 (centres undefined),-10
Cc1ccc(C)c(N(CC(=O)N2CCc3ccccc3C2)S(C)(=O)=O)c1,-10
COc1ccc(COC(=O)C2CCN(S(=O)(=O)c3ccc(OC)c(OC)c3)CC2)cc1,-1

Some of these compounds in order of count of non-hydrogen atoms, largest number first:
canonical_smiles,Mtb bLac sens
COc1ccc(C(=O)NCCc2ccccn2)cc1S(=O)(=O)Nc1ccc(Br)cc1,-9
COc1ccc(S(=O)(=O)N2CCC(C(=O)NC3CCCCC3C)CC2)cc1 (centres undefined),-7
Cc1ccc(NC(=O)COc2ccc3c(c2)OCO3)c(Cl)c1,-2

(continued)
canonical_smiles,Mtb bLac sens
N#CCN(C(=O)COC(=O)CCCNC(=O)c1ccc(Cl)cc1)c1ccccc1,-5
Nc1nc(=S)c2ncn([C@@H]3O[C@H](CO)[C@@H](O)[C@H]3O)c2[nH]1,2
COc1ccccc1C(=O)NCCC(=O)N(C)Cc1cccnc1,-4
COc1cc(C(C)=O)ccc1OCC(=O)NCC(c1ccc(F)cc1)N1CCOCC1 (centres undefined),2
Cc1c(Cl)cccc1NC(=O)CCN1CCOCC1,-3
CCOC(=O)c1c(CN2CCOCC2)oc2ccc(OC(C)=O)cc12,4
CN(CC(=O)Nc1ccccc1C(=O)NC1CC1)Cc1ccc(N(C)C)cc1,2
Cc1ccc(NS(=O)(=O)c2ccc3c(c2)CC(=O)N3)cc1F,2
Cc1ccc(SCC(=O)OC(C)C(=O)NC2CCCCC2C)c(C)c1 (centres undefined),1
COc1ccc([C@@H]2CC=C(C(=O)O)[C@H](c3ccc(Cl)cc3)N2S(=O)(=O)c2ccccc2C)cc1,-5
CC(C)(C)c1ccc(C(=O)NCCC(=O)NC2=NCCS2)cc1,-5
O=C1N[C@@H](Cc2ccccc2)COC(=O)[C@@H](Cc2ccc(F)cc2)CC/C=C/C[C@@H]1CC(=O)N(CCO)Cc1ccccc1,9

(cont.)
canonical_smiles,Mtb bLac sens
COc1ccc(CC(=O)OCC(=O)c2ccc(OC)c(OC)c2)cc1,-10
Nc1nc(N)c2nc(CNc3ccc(C(=O)NC(CCC(=O)O)C(=O)O)cc3)cnc2n1 (centres undefined),u
CCc1cccc(NC(=O)CCCN2C(=O)NC(C)(C)C2=O)c1,-6
CC(=O)Nc1ccc(NC(=O)COC(=O)c2cc(S(=O)(=O)N3CCCC3)ccc2O)cc1,4
Cc1ccnc(NC(=S)N2CCN(c3cccc(C(F)(F)F)c3)CC2)c1,90
COc1cccc(C(=O)Nc2nnc(CCS(=O)(=O)c3ccc(C)cc3)s2)c1,u
CC(C)C(=O)Nc1ccc(Oc2ccc3c(c2)C(=O)NC3=O)cc1,1
COc1cccc(CC(=O)OCC(=O)NC2(C#N)CCCC2)c1,-7
Cn1ccc(NC(=O)c2ccc(Cl)cc2Cl)n1,-7
CN(CC(=O)NCc1ccco1)CC(=O)Nc1ccc(F)c(F)c1F,-8
CCC(CO)Oc1cc(NCc2ccccc2O)c2ncn(C(C)C)c2c1 (centres undefined),4
O=C(CCC(=O)N1CCOCC1)NCc1cccc(C(F)(F)F)c1,-2

Retrieved by structure from the list above, three records:
canonical_smiles,Mtb bLac sens
COc1ccc(COC(=O)C2CCN(S(=O)(=O)c3ccc(OC)c(OC)c3)CC2)cc1,-1
COc1ccc(CC(=O)OCC(=O)c2ccc(OC)c(OC)c2)cc1,-10
CC(C)C(=O)Nc1ccc(Oc2ccc3c(c2)C(=O)NC3=O)cc1,1

Next entries:
canonical_smiles,Mtb bLac sens
CC(C)c1ccc(C(=O)NNC(=O)c2n[nH]c(=O)c3ccccc23)cc1,-5
COC(=O)C1CCN(C(=O)C2CCN(C(=O)[C@@H](NS(=O)(=O)c3ccc(C)cc3)C(C)C)CC2)CC1,-8
O=C(c1cc(C2CC2)nn1-c1ccccc1)N1CCN(Cc2c(F)cccc2Cl)CC1,5
C[C@H](CO)N1C[C@H](C)[C@H](CN(C)S(C)(=O)=O)Oc2c(cccc2N(C)C)C1=O,3
C=CCC[C@H](Cc1ccc(F)cc1)C(=O)OC[C@@H](C)NC(=O)[C@@H](CC=C)CC(=O)N[C@H](CO)Cc1ccccc1,-4
O=C(COC(=O)CNC(=O)C1CCCCC1)NCc1ccc(Cl)cc1,-1
C[C@]12CCC3C(CC[C@H]4C[C@@H](O)CC[C@]34C)C1C[C@H](Br)[C@@H]2O (some centres undefined),-1
CC(NS(=O)(=O)c1cccc(C(=O)NCc2ccncc2)c1)c1ccccc1 (centres undefined),-2
CCN(CC)c1ccc(/C=N/N2CC(=O)NC2=S)cc1,6
Clc1ccc(N2CCN(Cc3c[nH]c4ncccc34)CC2)cc1,-3
Cc1ccccc1CN1CCN(C(=O)c2ccc(S(=O)(=O)NCc3ccco3)cc2)CC1,1
COCCn1c(SCC(=O)Nc2ccc3[nH]c(=O)[nH]c3c2)nc2ccccc21,2

The list continues.
canonical_smiles,Mtb bLac sens
CCOC(=O)c1cccc(NC(=O)c2ccc(-n3cnnn3)cc2)c1,-5
COc1ccccc1CNC(=O)COC(=O)c1ccc(S(=O)(=O)N2CCCCC2)cc1,-2
CO[C@H]1/C=C/O[C@@]2(C)Oc3c(C)c(O)c4c(O)c(c(C=NN5CCN(C)CC5)c(O)c4c3C2=O)NC(=O)/C(C)=C\C=C\[C@H](C)[C@H](O)[C@@H](C)[C@@H](O)[C@@H](C)[C@H](OC(C)=O)[C@@H]1C,100
C=C(Br)CN1[C@@H](Cc2ccccc2)[C@H](O)[C@@]23C=C[C@@H](C[C@@H]2S1(=O)=O)O3,5
O=C(NC1CCCCCC1)c1cccc(S(=O)(=O)N2CCOCC2)c1,-4
Cc1ccc2c(c1)[C@H]1[C@H](CO2)[C@H](c2ccccc2)[C@]2(C)C(=O)NCC(=O)N12,-2
CCCc1ccc(S(=O)(=O)N2CCN(C(C)C(=O)NCc3ccc(OC)cc3)CC2)cc1 (centres undefined),10
COc1cc(/C=C/C(=O)Nc2ccc(OC)c(S(=O)(=O)N3CCOCC3)c2)ccc1OC(F)F,2
O=C(Nc1cc(Cl)ccc1N1CCOCC1)c1ccncc1,-8
Cc1ccc(S(=O)(=O)N2CCCCC2)cc1C(=O)N1CCN(CCO)CC1,-2
Cc1cccc(OCCNC(=O)c2ccc(Cl)c(S(=O)(=O)NCc3cccnc3)c2)c1,0
CCOC(=O)CCCCCC(=O)Nc1ccc2c(c1)CC(=O)N([C@H](C)CO)C[C@@H](C)[C@H](CN(C)Cc1ccc3c(c1)OCO3)O2,-4

Further records
canonical_smiles,Mtb bLac sens
CCC(C)Nc1ccc(NC(C)CC)cc1 (centres undefined),101
COC(=O)[C@H](CC(C)C)NC(=O)Cn1cnc2c(OCc3ccccc3)ncnc21,14
COc1ccc([C@H]2CC(=O)C=C(c3cccc(C(F)(F)F)c3)C2)cc1,33
N#Cc1cccc(NC(=O)COC(=O)c2cc(S(=O)(=O)Nc3ccccc3Cl)ccc2O)c1,2
Cc1c(Cl)cccc1NC(=S)Nc1ccc(S(=O)(=O)Nc2ncccn2)cc1,0
CCC(=O)N1CCc2cc(Br)cc(S(=O)(=O)N3CCCC(C(=O)NC(C)(C)C)C3)c21 (centres undefined),-5
Cc1c(C(=O)NNC(=O)c2ccncc2)oc2ccccc12,-2
Cc1cc(NC(=O)CSc2nc3c(C)ccc(C)c3cc2C#N)no1,0
CCCCN1C(=N)N([C@@H](C)CN2CCC[C@H]2CN2C(N)=NC[C@@H]2Cc2ccccc2)C[C@H]1[C@H](C)CC,13
CC(Oc1cccc(Br)c1)C(=O)NNC(=O)c1ccccn1 (centres undefined),99
COc1ccc(CC(=O)OCC(=O)NCc2ccc3c(c2)OCO3)cc1OC,-3
O=C(Cn1c(=O)cnc2ccccc21)Nc1cccc(S(=O)(=O)N2CCOCC2)c1,-3

Going on with the list:
canonical_smiles,Mtb bLac sens
CC(C)(C)C1CCC(CN2C(Nc3ccccc3)=NC[C@@H]2Cc2ccccc2)CC1 (some centres undefined),100
Cc1nc(N/C(N)=N/S(=O)(=O)c2ccccc2)nc2ccccc12,-2
Cc1cc(C)n2nc(SCC(=O)N(CCC#N)c3ccccc3F)nc2n1,-6
Cc1nn(CC(=O)Nc2ccc3c(c2)OCCO3)c(C)c1[N+](=O)[O-],24
CCN(CC(=O)NCc1cccs1)C(=O)CCCOc1ccc(C(C)(C)C)cc1,2
O=C(CCCOc1ccccc1)NNC(=O)c1ccc(Cl)cc1,4
CN(C)c1ccc(C(=O)NCC(c2cccs2)N2CCOCC2)cc1 (centres undefined),1
O=C1COc2ccc(C(=O)CSc3ccc(Br)cc3)cc2N1,-1
COc1ccc(C(=O)O)cc1S(=O)(=O)Nc1ccccc1-c1ccccc1,-2
CCSc1nnc(NC(=O)CCNC(=O)c2ccccc2Cl)s1,-12
COc1ccc(CCNC(=O)C2=CC=CN3CCS(=O)(=O)N=C23)cc1,-8
Cc1cccc(NC(=O)CNC(=O)C(NC(=O)Cc2ccccc2)C(C)C)c1C (centres undefined),0

Next section.
canonical_smiles,Mtb bLac sens
CC(C)Nc1nnc(SC(C)C(=O)Nc2ccc(N3CCOCC3)cc2)s1 (centres undefined),7
O=C(CN1CCN(C(=O)CNC(=O)c2ccc3c(c2)OCO3)CC1)Nc1cccc(F)c1,2
CN1CCN(c2ccc(S(=O)(=O)N3CCOCC3)cc2NC(=O)Cc2ccccc2F)CC1,-2
CSc1ncccc1C(=O)OCC(=O)N1CCN(C(=O)c2ccco2)CC1,-6
c1cncc(CNc2ncnc3ccc(-c4ccc5c(c4)OCO5)cc23)c1,11
O=C(COC(=O)CCC(=O)c1ccc(F)cc1)Nc1ccc(Cl)cn1,1
O=c1oc(CCO)cc2ccc(Br)cc12,3
Cc1cc(C)c(C)c(S(=O)(=O)Nc2ccc3cn[nH]c3c2)c1C,-6
COC(=O)C1=C(c2ccccc2OCc2ccccc2)C[C@@H]2CC[C@H]1N2C(=O)NCc1ccc(F)cc1,4
Nc1cc(Cl)ccc1C(=O)OCC(=O)NCc1cccs1,-6
COc1cc(OC)c(C(=O)OCC(=O)Nc2c(C)n(C)n(-c3ccccc3)c2=O)cc1OC,-1
Cc1ccc(C2=N/C(=C\c3ccc(F)cc3)C(=O)N2)cc1,1

(next part)
canonical_smiles,Mtb bLac sens
Cc1ccc(CONS(=O)(=O)c2cc(C)ccc2C)cc1,70
CCN(CC(=O)NCc1cccs1)CC(=O)Nc1cccc(S(N)(=O)=O)c1,0
O=C(COC(=O)/C=C/c1cccc(F)c1)NC1CCCCCC1,-1
O=C(NCc1cccc(OC(F)(F)F)c1)c1cccc2c1C(=O)c1ccc(-c3ccc(F)cc3OCc3ccccc3)cc1S2(=O)=O,7
CC(NCC(=O)Nc1ccccc1C(=O)NC1CC1)c1ccccc1Cl (centres undefined),-1
CCOC(=O)c1ccc(S(=O)(=O)N2CCC(C(=O)NCC3CCCCC3)CC2)cc1,-4
CCN1CCN(c2ccc(S(=O)(=O)N3CCCCC3)cc2NC(=O)Cc2c(F)cccc2Cl)CC1,-3
CCC1(c2ccccc2)NC(=O)N(CC(=O)N2CCc3ccccc32)C1=O (centres undefined),5
C[C@]12CCC(=O)C[C@H]1CC[C@@H]1[C@@H]2CC[C@]2(C)C(=O)CC[C@@H]12,1
CCOc1ccc(NC(=O)CN2C(=O)NC(CCc3ccccc3)C2=O)cc1OCC (centres undefined),-10
CC(C)CC[C@@H](O)[C@](C)(O)C1CC[C@@]2(O)C3=CC(=O)[C@@H]4C[C@@H](O)[C@@H](O)C[C@]4(C)C3CC[C@]12C (some centres undefined),-5
COc1ccc(-c2nn(-c3ccccc3)cc2C(N)=O)cc1OC,0

The list goes on:
canonical_smiles,Mtb bLac sens
CN(C)c1cccc(C(=O)NC2CCCc3ccccc32)c1 (centres undefined),-8
COc1ccccc1NC(=O)c1ccc(NC(=O)c2ccc(=O)[nH]c2)cc1,-2
c1ccc(CN2CCC(N3CCC(N4CCCCCC4)CC3)CC2)cc1,-7
CO[C@@H]1[C@@H](OC(N)=O)[C@@H](O)C(Oc2ccc3c(O)c(NC(=O)c4ccc(O)c(CC=C(C)C)c4)c(=O)oc3c2C)OC1(C)C (some centres undefined),93
O=C(COC(=O)CCN1C(=O)C2CC=CCC2C1=O)Nc1ccc([N+](=O)[O-])cc1 (centres undefined),-5
CCOc1ccc(OCC(=O)OCc2cc(=O)n3cc(Br)ccc3n2)cc1,19
Cc1ccccc1NC(=O)CSc1nnc(NC(=O)C2CC2)s1,-2
CC(=O)N1CCN(c2ccc(NC(=O)c3cccc(Cl)c3)cc2)CC1,-4
Cc1ccc(-c2noc(Cn3cc(S(=O)(=O)N4CCCC4)ccc3=O)n2)cc1,-1
CC(C)(C)OC(=O)COc1cc(F)ccc1[N+](=O)[O-],1

Only part of the results is shown, so the mix of outcomes need not match the whole.
